Compound activity (PubChem BioAssay)
Ecoli rRNA inh – inhibits bacterial ribosomal RNA function over humanized ribosomes | E. coli WT GFP vs humanized-ribosome RFP mutants, fluorescence, 24 h; active compounds read low; DMSO median 0, no signal -100 | 350,000 tested, 1.6% active | GFP signal change (wild-type ribosome), % (concentration not given with the values);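 active = significant combined selectivity score with lowered wild-type GFP, culture density cut under 30%, mutant RFP and density less affected; inactive = any of these conditions unmet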; note: one replicate is shown; some compounds called inactive have numbers as strong as hits
MLL AF4-AF9 inh – inhibitors of human MLL-AF4/AF9 interaction | 350,000 tested, 0.47% active | AlphaScreen, biotin-AF4 peptide binding to FLAG-AF9 | inhibition, % at 10 µM | P42568;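 active = every replicate reaching a set inhibition limit, whatever the replicate mean, cut at about 25% in these data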;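 note: 0% = plate neutral control median and 100% = total signal loss; the record names both 10 and 1 µM as test concentration; the first replicate is given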
Target sequence (P42568 whole entry, looked up): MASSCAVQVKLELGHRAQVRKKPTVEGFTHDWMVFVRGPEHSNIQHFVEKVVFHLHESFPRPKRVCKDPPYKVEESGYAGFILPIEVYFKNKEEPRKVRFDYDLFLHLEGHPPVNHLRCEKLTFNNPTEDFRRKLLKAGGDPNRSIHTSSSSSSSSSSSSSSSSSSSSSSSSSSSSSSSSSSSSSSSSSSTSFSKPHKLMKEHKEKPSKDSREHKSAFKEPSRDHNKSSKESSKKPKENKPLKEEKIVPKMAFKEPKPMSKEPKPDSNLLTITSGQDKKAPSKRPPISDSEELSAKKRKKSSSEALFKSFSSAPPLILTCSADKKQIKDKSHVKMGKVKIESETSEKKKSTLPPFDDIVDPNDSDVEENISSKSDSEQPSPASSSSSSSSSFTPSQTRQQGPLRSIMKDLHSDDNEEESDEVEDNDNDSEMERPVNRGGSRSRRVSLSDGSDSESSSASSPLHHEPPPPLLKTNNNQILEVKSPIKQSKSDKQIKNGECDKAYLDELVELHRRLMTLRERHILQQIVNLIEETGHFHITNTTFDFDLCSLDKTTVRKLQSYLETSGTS
FGF22 binding – shifts melting point of recombinant human FGF22; calls only at 9.99 µM; 340,000 tested, 1.5% active; recombinant FGF22 thermal shift, SYPRO orange fluorescence; percent of sucrose octasulfate shift, DMSO zero;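 active = melting point raised past a set limit in the mean and every replicate; three in four hits are not shown here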
Target sequence (Q9HCT0 whole entry, looked up): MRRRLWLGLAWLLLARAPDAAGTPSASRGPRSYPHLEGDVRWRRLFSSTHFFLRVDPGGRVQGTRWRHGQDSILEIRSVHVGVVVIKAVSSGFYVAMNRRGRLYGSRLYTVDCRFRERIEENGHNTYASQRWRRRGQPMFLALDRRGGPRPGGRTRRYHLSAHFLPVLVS
Ecoli rRNA inh OD600 – also measured in Ecoli rRNA inh; calls as there; OD600 change, %; measured here: OD600 growth;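 optical density of the mix in the first replicate; 0 = DMSO median and -100 = no signal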
Ecoli rRNA inh RFP – further read-out of Ecoli rRNA inh, marked with its call; RFP signal change, %; measured here: RFP humanized mutant strains;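 first replicate; 0 = DMSO median and -100 = no signal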
The depositor's hits bear a star; i = inactive; x = not tested or not shown. Not all compounds are listed (hit frequency here may not be typical).

No.	Molecule	Ecoli rRNA inh	Ecoli rRNA inh OD600	Ecoli rRNA inh RFP
1	CO[C@@H]1CC[C@@H]2CCN(C)C(=O)[C@@H](C)[C@H](OC)CN(C)C(=O)c3cc(C#N)ccc3OC[C@@H]1O2	10	15	-3.2
2	COc1ccccc1C(NC(=O)C1CCN(CCOc2ccc(Cl)cc2)CC1)c1ccccn1 (stereo not given)	-40	-73	-4.1
3	CN(C)CC(=O)Nc1ccc2c(c1)[C@H]1C[C@@H](CC(=O)N(C)C)O[C@H](CO)[C@H]1O2	0	0	-1.2
4	COCCCNC(=O)c1cccc2c(-c3ccnn3C)coc12	-2	-8	-1.7
5	COCC(=O)Nc1ccc2c(c1)OC[C@@H](C)N(C(=O)c1ccncc1)C[C@H](C)[C@H](OC)CN(C)C2=O	1	-5	-0.5
6	COc1ccc(-c2ccc(C(=O)Nc3ccc(NC(C)=O)cc3)c3occc23)c(C)c1	7	28	5.8
7	CCCNC(=O)C[C@@H]1CC[C@@H]2[C@H](COC[C@@H](O)CN2C(=O)c2ccccn2)O1	4	5	1.4
8	CCNC(=O)C1(C)CCN(C(=O)c2ccc(C)c(F)c2)C1 (stereo not given)	8	22	-1.5
9	CCCCNC(=O)C(NC(=O)c1cnc(C)cn1)C(=O)c1ccccc1 (stereo not given)	12	17	2.8
10	COc1cc(C(CCN2CCOCC2)c2c(OC)cc(OC)c3c(-c4ccccc4)cc(=O)oc23)cc(OC)c1OC (stereo not given)	-49	-80	-14
11	Cc1ccc(Cc2c(-c3ccccc3)nc3ccc(Br)cn23)cc1	3	-8	-3.4
12	CC(=O)N(C)C[C@H]1Oc2cc(Br)ccc2S(=O)(=O)N([C@H](C)CO)C[C@H]1C	0	-1	-3.4
13	C[C@@H]1CN([C@@H](C)CO)C(=O)c2cc(NC(=O)NC3CCCCC3)ccc2O[C@@H](C)CCCCO[C@H]1CN(C)Cc1ccc(Cl)c(Cl)c1	-1	-1	1.3
14	C[C@H](CO)N1C[C@H](C)[C@@H](CN(C)C(=O)Cc2ccccn2)Oc2ncc(C#C[C@@H](C)O)cc2C1=O	5	4	-0.7
15	CCC(=O)N1[C@@H](CO)[C@@H](c2ccccc2)[C@@H]1CN(CC)C(=O)NC1CCCC1	1	0	0.1

No.	MLL AF4-AF9 inh	FGF22 binding
1	-0.2	i
2	4.0	i
3	-1.7	i
4	0.0	i
5	-0.4	i
6	-5.2	i
7	-1.0	i
8	-1.8	i
9	0.8	i
10	14	i
11	-1.6	i
12	-4.1	i
13	1.9	i
14	-1.4	i
15	-3.4	i

Quoted from above: entries 1–4
No.	Molecule	Ecoli rRNA inh	Ecoli rRNA inh OD600	Ecoli rRNA inh RFP
1	CO[C@@H]1CC[C@@H]2CCN(C)C(=O)[C@@H](C)[C@H](OC)CN(C)C(=O)c3cc(C#N)ccc3OC[C@@H]1O2	10	15	-3.2
2	COc1ccccc1C(NC(=O)C1CCN(CCOc2ccc(Cl)cc2)CC1)c1ccccn1 (stereo not given)	-40	-73	-4.1
3	CN(C)CC(=O)Nc1ccc2c(c1)[C@H]1C[C@@H](CC(=O)N(C)C)O[C@H](CO)[C@H]1O2	0	0	-1.2
4	COCCCNC(=O)c1cccc2c(-c3ccnn3C)coc12	-2	-8	-1.7

No.	MLL AF4-AF9 inh	FGF22 binding
1	-0.2	i
2	4.0	i
3	-1.7	i
4	0.0	i

Continued:
No.	Molecule	Ecoli rRNA inh	Ecoli rRNA inh OD600	Ecoli rRNA inh RFP
16	O=C(Nc1ccccc1)N[C@@H]1CC[C@H](CCNS(=O)(=O)c2cccc(F)c2)O[C@H]1CO	0	0	1.2
17	COc1cccc(C(NC(C)=O)c2nc(-c3cccnc3)cs2)c1 (stereo not given)	3	11	-1.8
18	O=C(CN1CCOCC1)NCC[C@H]1CC[C@@H](NC(=O)Cc2ccccn2)[C@@H](CO)O1	-1	8	2.1
19	O=C(c1cnccn1)N1CC(=O)N2[C@H](C1)[C@H](c1ccc(/C=C/c3ccccc3)cc1)[C@@H]2CO	0	3	-2.8
20	O=C(C[C@@H]1C=C[C@@H](NS(=O)(=O)c2cccc(F)c2)[C@H](CO)O1)NCc1ccc2c(c1)OCO2	3	5	0.2
21	CNC(=O)C[C@@H]1CC[C@@H]2[C@H](COC[C@@H](O)CN2C(=O)Nc2ccc(Cl)c(Cl)c2)O1	-58	-78	-16
22	C[C@H]1CCCCO[C@H](CN(C)Cc2ccncc2)[C@@H](C)CN([C@@H](C)CO)C(=O)c2cc(NC(=O)NC3CCCCC3)ccc2O1	-2	-2	-0.2
23	COc1ccc(CN(C)CCCn2ccc(NC(=O)OCc3ccccc3)nc2=O)cc1OC	-2	5	-8.2
24	CCc1nc2c(OCc3cc(Cl)cc(Cl)c3)cccn2c1N(C)C(=O)c1cccc(OC)c1	-5	-10	21
25	CC(=O)NC(c1cccc(F)c1)c1nc(-c2cnn(C)c2)cs1 (stereo not given)	1	13	-2.6
26	CO[C@@H]1CN(C)C(=O)c2ccc(NS(=O)(=O)c3cn(C)cn3)cc2OC[C@@H](C)N(C)C[C@@H]1C	4	-2	-0.9
27	COC(=O)[C@]12C[C@H](CC(=O)NCC34CC5CC(CC(C5)C3)C4)C(=O)N(Cc3ccccc3)C1=C[C@H](C(C)(C)C)O[C@@H]2C	6	-1	-4.5
28	CNC[C@H]1Oc2ccc(NS(=O)(=O)c3ccc(Cl)cc3)cc2C(=O)N([C@H](C)CO)C[C@@H]1C	8	5	-0.7
29	COc1ccc(NC(=O)N[C@@H]2C=C[C@H](CC(=O)NC3CCCCC3)O[C@@H]2CO)cc1	1	-4	0.5
30	O=C(Nc1ccc2c(c1)[C@H]1C[C@H](CC(=O)N3CCOCC3)O[C@@H](CO)[C@H]1O2)NC1CCCCC1	2	4	-2.9

No.	MLL AF4-AF9 inh	FGF22 binding
16	0.0	i
17	-0.5	i
18	1.0	i
19	18	i
20	0.2	i
21	-0.1	i
22	-1.5	i
23	10	x
24	2.1	i
25	-3.6	i
26	-1.6	i
27	1.4	i
28	-4.2	i
29	6.1	i
30	-0.7	i

(continued)
No.	Molecule	Ecoli rRNA inh	Ecoli rRNA inh OD600	Ecoli rRNA inh RFP
31	CO[C@@H]1CN(C)C(=O)c2ccc(NS(C)(=O)=O)cc2OC[C@H](C)N(Cc2cncnc2)C[C@@H]1C	2	1	-3.4
32	COc1ccc(CN(C)C[C@H]2Oc3ccc(NS(=O)(=O)c4ccccc4)cc3C(=O)N([C@H](C)CO)C[C@H]2C)cc1	-2	3	-0.9
33	C[C@H]1CN([C@@H](C)CO)C(=O)c2cc(NC(=O)CCCCCC(=O)Nc3ccccc3N)ccc2O[C@@H]1CN(C)S(C)(=O)=O	0	10	1.4
34	Cc1ccc(-c2ccc3c(c2)O[C@H](CN(C)CC2CC2)[C@H](C)CN([C@H](C)CO)S3(=O)=O)cc1	-2	-4	10
35	O=C1NC[C@H](CCCCN2C[C@H](Cc3ccccc3)N(Cc3ccccc3)C(=O)C2=O)N(CCC2CCCCC2)C1=O	14	10	-1.1
36	CCCNC(=O)N1CC2(C1)[C@@H](c1ccccc1)[C@H](CO)N2C(=O)C1CC1	3	7	-2.3
37	C[C@H](CO)N1C[C@H](C)[C@H](CN(C)CC2CC2)Oc2ccc(NC(=O)CCC(F)(F)F)cc2C1=O	5	23	3.7
38	Cc1ccc(S(=O)(=O)Nc2ccc3c(c2)C(=O)N([C@H](C)CO)C[C@@H](C)[C@@H](CN(C)C(=O)Nc2cccc4ccccc24)OCCCC[C@@H](C)O3)cc1	5	12	-0.5
39	C[C@@H]1CN([C@@H](C)CO)C(=O)c2cc(NS(=O)(=O)c3ccc(Cl)cc3)ccc2O[C@H]1CN(C)C(=O)Nc1cccc2ccccc12	-3	-6	2.2
40	CCS(=O)(=O)N[C@H]1CC[C@@H](CC(=O)NCc2ccccn2)O[C@H]1CO	5	8	1.5
41	O=S1(=O)CC(N2CCC(Cc3ccccc3)CC2)CN1C1CCCC1 (stereo not given)	-37	-41	-3.7
42	C[C@H]1CN([C@@H](C)CO)C(=O)c2cc(-c3ccc(F)cc3)cnc2O[C@@H]1CN(C)Cc1ccc(C(=O)O)cc1	0	5	-4.2
43	C[C@@H]1CN([C@@H](C)CO)C(=O)c2cc(C#CCN(C)C)cnc2O[C@H]1CN(C)Cc1ccc(C(=O)O)cc1	2	2	0.8
44	CC(C)NC(=O)c1ccc(-c2ccc(F)c(F)c2)c2ccoc12	-3	-14	-1.0
45	CCc1nc2cc(NC(=O)C3(C)CCCN(C(C)=O)C3)ccc2o1 (stereo not given)	10	15	0.6

No.	MLL AF4-AF9 inh	FGF22 binding
31	-12	i
32	-3.8	i
33	-2.9	i
34	10	i
35	1.1	i
36	-1.6	i
37	-4.7	i
38	0.1	i
39	0.9	i
40	-2.6	i
41	-6.8	i
42	-2.0	i
43	-8.4	i
44	-2.1	i
45	-0.9	i

Carrying on.
No.	Molecule	Ecoli rRNA inh	Ecoli rRNA inh OD600	Ecoli rRNA inh RFP
46	O=C(C[C@H]1CC[C@H]2[C@@H](COC[C@H](O)CN2Cc2cccc(F)c2)O1)NCc1cccc(F)c1	-4	-3	-2.0
47	C[C@H](CO)N1C[C@H](C)[C@@H](CN(C)CC2CC2)OCCCC[C@H](C)Oc2ccc(NC(=O)Nc3ccc(F)cc3)cc2C1=O	1	2	-2.0
48	N#C[C@H]1[C@@H](c2ccc(-c3cccnc3)cc2)[C@@H](CO)N1C(=O)C1CC1	0	-4	0.3
49	CCCS(=O)(=O)NC(=O)C1(C)CCN(C(=O)c2ccco2)C1 (stereo not given)	10	15	-1.1
50	CCc1nc2ccc(C(=O)Nc3ccc(NC(C)=O)cc3)cn2c1N(C)CCCc1ccccc1	-2	-9	7.7
51	CCC(=O)Nc1cc(OC)c(NC(=S)Nc2ccccc2CC)cc1OC	0	1	43
52	CCOC(=O)[C@]12CCC=C1N(Cc1ccc3c(c1)OCO3)C(=O)[C@H](CC(=O)NCc1ccc(OC)c(OC)c1)C2	-2	-10	7.5
53	O=C(c1ccc2c(c1)OCO2)N1CC[C@H]2[C@H](CO)Nc3ccc(-c4ccc(F)cc4)cc3[C@H]21	-9	-40	21
54	C[C@@H]1CN([C@H](C)CO)C(=O)c2cc(NC(=O)Nc3ccc(F)cc3)ccc2O[C@@H](C)CCCCO[C@@H]1CN(C)Cc1ccccc1	-5	-32	17
55	COc1ccc(NC(=O)c2cc(C3CCCCN3S(=O)(=O)Cc3ccccc3)on2)c(C)c1 (stereo not given)	-3	-18	-1.1
56	COc1cccc(NC(=O)N(C)C[C@H]2Oc3ncc(C#Cc4ccncc4)cc3C(=O)N([C@H](C)CO)C[C@H]2C)c1	-6	4	-3.2
57	COc1ccc(C(=O)Cn2c(C(C)=O)nc3ccccc32)cc1	-2	-11	2.6
58	O=C(N[C@@H]1C=C[C@@H](CC(=O)N2CCOCC2)O[C@@H]1CO)c1ccccn1	4	-2	-0.3
59	COc1ccccc1-c1cnc2c(c1)C(=O)N([C@@H](C)CO)C[C@@H](C)[C@H](CN(C)Cc1ccccc1)O2	1	-3	2.3
60	Cc1cccc(C(=O)OC(C)C(=O)NCC2CCCCC2)c1O (stereo not given)	21	16	3.4

No.	MLL AF4-AF9 inh	FGF22 binding
46	-0.7	i
47	9.2	i
48	-1.1	i
49	1.2	i
50	0.9	i
51	-0.8	i
52	-0.6	i
53	4.2	i
54	8.0	i
55	-1.5	i
56	-4.3	i
57	-2.1	i
58	-2.3	i
59	-2.0	i
60	-2.6	i

(next part)
No.	Molecule	Ecoli rRNA inh	Ecoli rRNA inh OD600	Ecoli rRNA inh RFP
61	C[C@@H]1CN([C@@H](C)CO)C(=O)Cc2cc(NS(=O)(=O)c3ccccc3)ccc2O[C@H]1CN(C)Cc1ccc(C(=O)O)cc1	3	6	2.0
62	Cn1cnc(S(=O)(=O)N2CC[C@@H]3[C@H]2c2cc(-c4ccc(F)cc4)ccc2N[C@@H]3CO)c1	-12	-18	-1.6
63	CC(C)CC#Cc1cnc2c(c1)C(=O)N([C@H](C)CO)C[C@H](C)[C@@H](CN(C)C(=O)NC1CCCC1)O2	0	-2	3.2
64	C[C@H](CO)N1C[C@H](C)[C@H](CN(C)Cc2ccc(C(F)(F)F)cc2)Oc2ccc(NS(C)(=O)=O)cc2CC1=O	-2	-12	3.4
65	C[C@@H]1CCCCO[C@@H](CN(C)C(=O)CCC(F)(F)F)[C@H](C)CN([C@@H](C)CO)C(=O)c2cc(NS(=O)(=O)c3ccc(F)cc3)ccc2O1	-2	-16	-0.2
66	CO[C@@H]1CN(C)C(=O)c2cc(NC(C)=O)ccc2OC[C@H](C)N(C(=O)c2ccccn2)C[C@@H]1C	1	0	-0.1
67	COc1ccc(S(=O)(=O)N[C@H]2CC[C@@H](CCNC(=O)Cc3ccccn3)O[C@@H]2CO)cc1	0	2	0.2
68	Cn1c(SCC(=O)NNC(=O)c2ccccc2Br)nnc1C(F)(F)F	13	13	-1.6

No.	MLL AF4-AF9 inh	FGF22 binding
61	-2.4	i
62	-3.2	i
63	1.7	i
64	2.0	i
65	1.3	i
66	-7.7	i
67	-1.0	i
68	-3.4	i
